Source: PubChem BioAssay (National Center for Advancing Translational Sciences (NCATS))
miR-21 FLuc: qHTS Assay for Modulators of miRNAs and/orActivators of miR-21. HeLa miR-21 FLuc reporter, luciferase, 48 h. Potency, µM (series often up to 38.3 µM), inactives show at the highest dose reporter change, positive = more light. 340,000 tested, under 10 active. AID 2288, 2010; active = well fitted rising curve with a large enough effect; inconclusive = small, poorly fitted or top-dose-only effect; inactive = no such curve, though single readings can be large or run the other way;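 note: % of control where 0% means no effect; miR-21 action dims this reporter so a rising signal means less miR-21 action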
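Luminescence from a firefly luciferase reporter carrying a miR-21 binding site downstream, stably expressed under a CMV promoter in HeLa cells that make miR-21 endogenously, reports miRNA modulation after 48 h compound exposure up to approximately 40uM final.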
Rango complex inh: qHTS Assay for Inhibitors of Rango (Ran-regulated importin-beta cargo) - Importin beta complex formation | Importin subunit beta-1 (Homo sapiens), Q14974 | Rango CFP/YFP FRET sensor + importin beta, 45 min | Potency, µM (doses to about 92.2 µM), without a hit: at the highest dose inhibition of complex formation | 340,000 compounds, 0.031% hits | AID 540263, 2011; active = rising FRET ratio curve, often small or poorly fitted; inconclusive = mostly compound fluorescence or quenching in the first reads; inactive = flat curves in all reads;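 note: potency is the fitted concentration of half-maximal effect; 0% = DMSO wells and 100% = buffer wells lacking importin beta; nearly all actives have a fitted effect of over 15% in size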
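FRET biosensor Rango (snurportin 1 IBB between N-terminal EYFP and C-terminal Cerulean), 50 nM in PBS/1 mM DTT/0.02% Tween-20/0.1% BSA, preincubated 5 min RT with compound; 0.125 microM importin beta added, 45 min RT, CFP/YFP FRET ratio read.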
Rango release inh: qHTS Assay for Inhibitors of RanGTP induced Rango (Ran-regulated importin-beta cargo) - Importin beta complex dissociation; Biochemical FRET Rango-importin beta, RanGTP-induced dissociation; 340,000 compounds, 0.071% hits; AID 540253, 2011; Potency, µM (series often up to 46.1 µM), for the others: top-dose activity change, negative = inhibition; Snurportin-1 (Homo sapiens) + GTP-binding nuclear protein Ran (Homo sapiens) + Importin …; active means falling FRET ratio curve, often poorly fitted, with flat reads before Ran was added; inconclusive means other falling curves, or compound fluorescence or quenching; inactive means flat or rising ratio curve;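 note: potency is the fitted concentration of half-maximal effect; % of control where 0% means no effect; nearly all actives have a fitted effect of over 45% in size; -100% = wells without RanGTP and RCC1; the record marks most hits as doubtful in a second field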
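Compounds preincubate 5 min with complex of recombinant Rango and importin beta in PBS with 1 mM DTT. Ran (0.6 uM) loaded with 2 mM GTP plus 0.2 uM RCC1 starts dissociation; FRET is recorded 45 min later.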
GLA inh pH 4.5: qHTS Assay for Inhibitors of Human alpha-Galactosidase at pH 4.5 | 230,000 tested, under 10 active | AID 1467, 2008 | purified enzyme, 4-MU-alpha-Gal fluorescence, pH 4.5 | activity change, negative = inhibition, % at 105 µM; inconclusive = small, poorly fitted or top-dose-only inhibition, or a rising curve; inactive = flat fitted curve, though single readings scatter; no compound was filed as active;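 note: 0% = full activity with enzyme and -100% = basal without enzyme; dose as in the result columns while the protocol names 77 µM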
Target sequence (P06280 whole entry, looked up): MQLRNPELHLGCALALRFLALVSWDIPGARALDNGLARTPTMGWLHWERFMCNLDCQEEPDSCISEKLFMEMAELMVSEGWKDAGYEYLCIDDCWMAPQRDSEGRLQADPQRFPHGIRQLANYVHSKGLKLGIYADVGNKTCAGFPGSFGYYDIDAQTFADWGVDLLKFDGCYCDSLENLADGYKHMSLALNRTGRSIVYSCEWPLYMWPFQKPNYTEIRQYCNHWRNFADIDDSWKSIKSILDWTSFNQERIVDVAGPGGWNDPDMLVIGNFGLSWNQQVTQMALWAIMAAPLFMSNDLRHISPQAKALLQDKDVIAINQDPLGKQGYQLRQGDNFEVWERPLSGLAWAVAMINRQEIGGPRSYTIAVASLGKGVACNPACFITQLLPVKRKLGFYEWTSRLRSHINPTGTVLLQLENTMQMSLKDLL
Active calls of the source: *; ? = inconclusive; · = not tested or not shown; [ ] = dose if it differs, or a comment. These rows are one share of the data (hit frequency here may not be typical).

SMILES | miR-21 FLuc | Rango complex inh | Rango release inh | GLA inh pH 4.5
O=C(NC(=S)NCc1ccc(F)cc1)c1ccccc1 | -34% | -0.6% | 2% | -8
C/C(=N\NC(=O)c1nn(C)cc1Br)c1cccc(NC(=O)c2ccncc2)c1 | -60% | 2.2% | -11% | -5
Cc1ccccc1NC(=O)Cc1nc(COC(=O)CCc2ccccc2)cs1 | · | 0.0% | 8% | ·
Cc1ccc(NC(=O)CSc2nc3ncc(Br)cc3[nH]2)cc1C | 14% | -1.7% | 7% | ·
CC(Oc1ccc(F)cc1)C(=O)Nc1ccc2ccccc2c1 (stereo not given) | 10% | 1.3% | -9% | -4
CN(C(=O)C1CCCC1)C1CCS(=O)(=O)C1 (stereo not given) | · | 1.0% | 19% | ·
COc1ccccc1OCC(O)CN1CCN(C(=O)c2ccccc2)CC1 (stereo not given) | -4% | 0.1% | 15% | ·
COCCNC(=O)CCc1ccc(S(=O)(=O)Nc2ccc(C)cc2)cc1 | 0% | -1.3% | 3% | -4
COc1ccc(-c2cc(-c3ccc(F)cc3)nc(N3CCN(C)CC3)n2)cc1 | 2% | -1.4% | 12% | 0
CC(Sc1nc(-c2ccccc2)cc(C(F)(F)F)n1)C(=O)N1CCCCC1 (stereo not given) | 4% | -0.4% | -16% | 3
Cc1ccc([N+](=O)[O-])cc1N=C(c1cccc(Br)c1)N1CCOCC1 | -2% | 1.1% | ? | 0
C=CCN=C1S/C(=C/c2cccc([N+](=O)[O-])c2)C(=O)N1CC=C | -1% | -0.9% | -5% | -8
CCOC(=O)CNC(=S)N(Cc1ccccc1F)C1CCCCC1 | 10% | 6.5% | 15% | -2[21.1 µM]
COc1ccc(NC(=O)N2CCCc3ccccc32)cc1 | -49% | 2.0% | 0% | 2
O=C(CSc1nccc(=O)[nH]1)NCc1ccc2c(c1)OCO2 | -1% | -2.4% | 2% | ·
Cc1cccc(C(=O)NCC(=O)N2CC(=O)Nc3ccccc32)c1 | -2% | 0.4% | -25% | -1
C=C(C)CN(CC)C(=O)CC1C(=O)NCCN1Cc1c(F)cccc1Cl (stereo not given) | -5% | 3.3% | 18% | 3
O=C(CSc1nnc(-c2ccc3c(c2)OCO3)n1-c1ccccc1)c1ccccc1 | -4% | 0.1% | -4% | -5
FC(F)(F)c1cc(C(F)(F)F)n2nc(-c3sccc3-n3cccc3)cc2n1 | 2% | 0.1% | 5% | -1
FC(F)(F)c1ccc(-c2cccc3c2C2CC3CCN2Cc2ccccc2)cc1 (stereo not given) | · | -0.5% | -2% | ·
COCCN1C=C(C(=O)OC)C(c2ccccc2C(F)(F)F)C(C(=O)OC)=C1 | -1% | ? | ? | ?
NNC(=O)c1ccc(Cn2cc(Br)cn2)o1 | -23% | -0.2% | -5% | 6
O=C(CSc1nnc(COc2cccc3cccnc23)o1)N1CCCC1 | 0% | -2.5% | -18% | -4
O=C(Nc1ccc(N2CCOCC2)cc1)c1ccc(S(=O)(=O)NCc2ccco2)cc1 | -19% | 4.3% | -11% | 4
COc1cc2c(cc1OC)C(C)N(C(=O)c1c(C)noc1C)CC2 (stereo not given) | 19% | 5.5% | 3% | 0

Profiles from above:
Listed for `COCCN1C=C(C(=O)OC)C(c2ccccc2C(F)(F)F)C(C(=O)OC)=C1` = miR-21 FLuc: -1%; Rango complex inh: ?; Rango release inh: ?; GLA inh pH 4.5: ?
Listed for `COc1ccccc1OCC(O)CN1CCN(C(=O)c2ccccc2)CC1` (stereo not given) = miR-21 FLuc: -4%; Rango complex inh: 0.1%; Rango release inh: 15%; GLA inh pH 4.5: ·

Additional structures.
SMILES | miR-21 FLuc | Rango complex inh | Rango release inh | GLA inh pH 4.5
COc1ccc(CNC(=O)Cn2nc(Cc3cccnc3)c3ccccc3c2=O)cc1 | -6% | -3.0% | -3% | -3
CC(=O)c1c(C)[nH]c(C(=O)COC(=O)CCCOc2ccccc2)c1C | -3% | -0.1% | 19% | -13
Cc1cc(=O)n2[nH]c(-c3ccsc3-n3c(C)ccc3C)cc2n1 | 3% | ? | -19% | 8
C/C(=C\C(=O)c1ccc(Cl)s1)N(C)C | -4% | 0.2% | -5% | 0
O=C(Oc1ccccc1[N+](=O)[O-])c1cccnc1 | -4% | 2.2% | 2% | -1
c1ccc(-n2nnnc2-c2cccc3ccccc23)cc1 | · | 3.1% | -11% | ·
Cc1ccc(-n2c(C)cc(C(=O)COc3cccnc3[N+](=O)[O-])c2C)cc1 | -21% | 1.3% | 30% | 4
CCNC(=S)N1CCN(S(=O)(=O)/C=C/c2ccccc2)CC1 | 3% | -0.7% | 6% | ·
O=C(Nc1cccnc1Oc1ccc(Cl)cc1)c1cccc2ccccc12 | -1% | -2.4% | 11% | -5
COc1ccc(C2=NOC(Cn3nc(C(=O)NCc4cccc(Br)c4)cc3-c3ccccc3)C2)cc1 (stereo not given) | · | 5.1% | 0% | ·
Cc1cc(C)cc(Oc2ncnc3c2ncn3Cc2c(Cl)cccc2Cl)c1 | 0% | 0.4% | 1% | -8
NC(=O)c1ccc(NCC2COc3ccccc3O2)c([N+](=O)[O-])c1 (stereo not given) | -53% | -0.2% | 0% | -4
CCNc1nc(NCC)n2c(SCc3nc4ccccc4c(=O)[nH]3)nnc2n1 | -18% | -2.7% | 1% | 5
Cc1c(C(=O)Nc2ccccc2Cl)oc2ccc(S(=O)(=O)N3CCC4(CC3)OCCO4)cc12 | 0% | -0.6% | 8% | -3
Clc1cccc(-c2nnc(SCc3nc4ccccc4[nH]3)n2Cc2ccco2)c1 | 4% | -2.2% | -16% | 0
Cc1cccc(-c2noc(CN(C(C)C)S(=O)(=O)c3ccc(F)cc3)n2)c1 | 6% | 0.5% | 1% | 2
COC(=O)C1(C(O)C(=O)c2ccc(C)cc2C)CCCCC1 (stereo not given) | -1% | -2.2% | 1% | 6
COCCc1nc2ccc(C(=O)N(C)Cc3cccc(-n4cccn4)c3)cc2o1 | -29% | 0.0% | -1% | ·
OCCSc1ncnc2c1oc1ccccc12 | -36% | -1.6% | 1% | 6
CCOc1ccc2[nH]cc(S(=O)(=O)c3ccc(F)cc3)c(=O)c2c1 | 2% | 0.4% | -8% | -2
Cc1cccc(NC(=O)CSc2nnc(-c3ccco3)c(-c3ccco3)n2)c1 | -6% | ? | 7% | -15
COc1cc(C(=O)Nc2ccccc2C2COC(=O)C2=N)cc(OC)c1OC (stereo not given) | -1% | 0.0% | -7% | 5
Cn1c(Cn2cnc([N+](=O)[O-])n2)nnc1SCC(=O)Nc1ccccc1 | -2% | 0.6% | -3% | 9
CC1(C)CC(=O)C=C(c2ccc(Cl)c(C(F)(F)F)c2)C1 | · | -0.4% | 3% | ·
CCOc1ccc2c(c1)C(C)=CC(C)(C)N2S(=O)(=O)c1ccc(NC(C)=O)cc1 | 15% | -1.7% | 16% | ·

Retrieved one by one from the list above:
SMILES | miR-21 FLuc | Rango complex inh | Rango release inh | GLA inh pH 4.5
Cc1cc(C)cc(Oc2ncnc3c2ncn3Cc2c(Cl)cccc2Cl)c1 | 0% | 0.4% | 1% | -8
COc1ccc(C2=NOC(Cn3nc(C(=O)NCc4cccc(Br)c4)cc3-c3ccccc3)C2)cc1 (stereo not given) | · | 5.1% | 0% | ·
NC(=O)c1ccc(NCC2COc3ccccc3O2)c([N+](=O)[O-])c1 (stereo not given) | -53% | -0.2% | 0% | -4
Clc1cccc(-c2nnc(SCc3nc4ccccc4[nH]3)n2Cc2ccco2)c1 | 4% | -2.2% | -16% | 0
c1ccc(-n2nnnc2-c2cccc3ccccc23)cc1 | · | 3.1% | -11% | ·
Cc1ccc(-n2c(C)cc(C(=O)COc3cccnc3[N+](=O)[O-])c2C)cc1 | -21% | 1.3% | 30% | 4

The listing picks up, repeating the 6 entries before the break.
SMILES | miR-21 FLuc | Rango complex inh | Rango release inh | GLA inh pH 4.5
CCOc1ccc2[nH]cc(S(=O)(=O)c3ccc(F)cc3)c(=O)c2c1 | 2% | 0.4% | -8% | -2
Cc1cccc(NC(=O)CSc2nnc(-c3ccco3)c(-c3ccco3)n2)c1 | -6% | ? | 7% | -15
COc1cc(C(=O)Nc2ccccc2C2COC(=O)C2=N)cc(OC)c1OC (stereo not given) | -1% | 0.0% | -7% | 5
Cn1c(Cn2cnc([N+](=O)[O-])n2)nnc1SCC(=O)Nc1ccccc1 | -2% | 0.6% | -3% | 9
CC1(C)CC(=O)C=C(c2ccc(Cl)c(C(F)(F)F)c2)C1 | · | -0.4% | 3% | ·
CCOc1ccc2c(c1)C(C)=CC(C)(C)N2S(=O)(=O)c1ccc(NC(C)=O)cc1 | 15% | -1.7% | 16% | ·
CCn1cc(CCCC(=O)NCc2ccccc2OC)c2ccccc21 | -1% | 0.0% | 16% | ·
COc1ccccc1N(Cc1cc(=O)[nH]c2ccccc12)C(=O)c1ccccc1 | 5% | 3.8% | -1% | -4
CNC(=S)N(CCN(C)C)Cc1cc2cc3c(cc2[nH]c1=O)OCO3 | 0% | 1.6% | 7% | ·
O=C(CNc1cccc(Cl)c1)NNC(=S)NCc1ccccc1 | 8% | 0.0% | 0% | -1
Nc1cc(N)cc(-c2nc3ccccc3o2)c1 | · | -4.2% | -12% | ·
O=C(c1cc2sccc2n1Cc1ccc(F)cc1)N1CCCc2ccccc21 | -3% | -0.3% | 2% | -9
N#C/C(=N\Nc1cccc(C(F)(F)F)c1)C(=O)c1csc(-c2cccnc2)n1 | 23% | 0.2% | 0% | 0
CC(=O)c1cc(-c2ccccc2)n(CC(=O)N2CCC(C)CC2)c1C | 0% | 4.5% | 7% | 2
COc1ccc(C(C)C)cc1S(=O)(=O)N1CCC(C(=O)NCC2CCCO2)CC1 (stereo not given) | 0% | -0.1% | -1% | ·
O=C(Nc1ccc(Oc2ccc(S(=O)(=O)N3CCOCC3)cn2)cc1)c1ccco1 | 1% | -2.6% | 6% | -1
CCOC(=O)[C@H]1[C@H]2COc3ccc(OC)cc3[C@@H]2N2C(=O)CN(Cc3ccc(Cl)cc3)C(=O)[C@@]12C | · | -0.4% | 14% | ·
COc1ccc(NC(=O)C2=NN(C3CCS(=O)(=O)C3)C(=O)CC2)cc1S(N)(=O)=O (stereo not given) | · | -0.5% | 1% | ·
O=C(c1ccccc1NS(=O)(=O)c1ccc(F)cc1)N1CCCC1 | -1% | -0.3% | 8% | -2
CCOC(=O)c1cc(-c2ccc(C)cc2)n(CCC(=O)NCCN(C)C)c1C | -17% | -3.0% | -2% | -2
Cc1cc2occ(CC(=O)NC3CCCc4ccccc43)c2cc1C (stereo not given) | 0% | 1.2% | 0% | 0
COc1cccc(C2CC(=O)N3CN(c4ccccc4F)CSC3=C2C#N)c1 (stereo not given) | -3% | ? | ? | -2
CC1=NN(C(C#N)c2cccc([N+](=O)[O-])c2)C(C)(C)C1 (stereo not given) | -5% | 2.1% | -3% | 2
Cc1ccc(S(=O)(=O)N2CCOCC2)cc1C(=O)N(Cc1nnc(-c2ccccc2Cl)o1)C1CC1 | 5% | 0.1% | 1% | ·
COc1ccc(C)cc1NC(=O)CSc1ccc(-c2cccnc2)nn1 | 2% | -4.2% | -2% | 7
